# RGS16-Gao – modulates binding between human RGS16 and Galphao | binding response (% of control), % at 10 µM | bead-based flow cytometry RGS16-Galphao binding, fluorescence; actives lie on both sides | AID 1441 | actives 0.38% (n = 220,000);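 active = below 25% or above 175%, edge rows of some plates excepted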;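 note: Galphao activated by GDP with aluminum fluoride before binding; 100% = wells without compound and 0% = beads without RGS; some results beyond the cut were filed as inactive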
# Insulin prom inh – TRM-6 insulin promoter activity inhibition; TRM-6 cells (human fetal islet line), insulin promoter-eGFP reporter, imaging; reporter expression induced with tamoxifen; actives 0.9% (n = 130,000); inhibition, % at 2 µM; AID 1273;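 active = inhibition above the mean plus 3 SD, with well images judged a real hit on visual review, cut at about 60% in these data, passing the limit was not always enough; inconclusive = inhibition over the cutoff but images rejected on review; inactive = inhibition not above the cutoff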
# GALR2 ag – agonists of human galanin receptor 2 (GALR2); O43603; GALR2-expressing cells, agonist activation read-out; activation, %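 (tested at 5 µM)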; actives 0.48% (n = 140,000); AID 803;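 active = above mean plus 3 SD of all compounds, about 5% in these data, not always enough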;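 note: 0% = vehicle buffer wells and 100% = reference agonist at full effect; tested in CHO reporter cells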
# PKD1 kinase inh – PKD1 (human) kinase inhibition. PKD1 kinase fluorescence polarization assay. inhibition, %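 (about 10 µM by stock and volumes)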. actives 0.056% (n = 200,000). AID 797;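 active = inhibition of 50% or more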;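 note: controls were vehicle for no effect and a reference inhibitor for full effect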
# Target sequence (Q15139 whole entry, looked up): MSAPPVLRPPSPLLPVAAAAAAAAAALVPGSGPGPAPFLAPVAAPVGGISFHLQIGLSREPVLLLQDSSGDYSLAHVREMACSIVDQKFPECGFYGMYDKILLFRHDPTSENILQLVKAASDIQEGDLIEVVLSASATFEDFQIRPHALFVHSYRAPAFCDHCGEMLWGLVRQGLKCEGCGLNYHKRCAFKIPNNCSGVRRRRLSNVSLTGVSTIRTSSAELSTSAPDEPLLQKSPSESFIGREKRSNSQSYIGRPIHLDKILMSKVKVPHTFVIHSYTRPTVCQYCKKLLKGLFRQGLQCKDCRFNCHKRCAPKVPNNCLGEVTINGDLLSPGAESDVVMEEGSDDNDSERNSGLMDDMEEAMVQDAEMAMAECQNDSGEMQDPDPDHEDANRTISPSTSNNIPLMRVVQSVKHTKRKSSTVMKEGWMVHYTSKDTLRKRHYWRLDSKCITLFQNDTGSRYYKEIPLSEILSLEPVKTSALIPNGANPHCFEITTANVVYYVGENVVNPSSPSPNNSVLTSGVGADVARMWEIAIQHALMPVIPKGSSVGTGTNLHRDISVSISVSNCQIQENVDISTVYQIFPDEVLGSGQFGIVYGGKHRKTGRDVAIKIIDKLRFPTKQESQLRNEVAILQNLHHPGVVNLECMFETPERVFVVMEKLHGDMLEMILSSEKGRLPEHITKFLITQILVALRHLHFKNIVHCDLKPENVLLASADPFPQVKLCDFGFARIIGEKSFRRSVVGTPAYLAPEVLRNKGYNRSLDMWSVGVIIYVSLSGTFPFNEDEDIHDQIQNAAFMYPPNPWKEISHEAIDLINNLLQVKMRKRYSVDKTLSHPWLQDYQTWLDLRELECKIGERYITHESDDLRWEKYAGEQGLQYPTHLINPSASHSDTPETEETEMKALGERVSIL
# HSV replic up – HSV replication enhancement; HSV replication augmentation in cells, fold increase; maximum fold increase; actives 0.005% (n = 220,000); AID 1956;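 active = peak rise of 1.5-fold or more in the series; inconclusive = self-fluorescent or not available for retest; tested in PC3 cells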;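 note: first round at 10 µM; read as green reporter fluorescence; hits show the peak of a series up to 25 µM; 1 = signal of infected wells without compound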
# Insulin prom inh cell count – recorded beside Insulin prom inh, whose call it bears; normalized cell count, %; measured here: cell count, toxicity; reference of the scale not given here;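 cells exposed to compound for 48 h; stained nuclei by imaging scaled within each plate; lower means fewer cells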
# HSV replic up primary fold – recorded beside HSV replic up, whose call it bears; fold increase; compound at 10 µM; measured here: primary screen fold increase 10 uM; tested in PC3 cells;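 GFP signal in the first replicate; 1 = infected wells without compound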
# The depositor's hits bear a star; i = inactive; ? = inconclusive; . = no result given.
SMILES,RGS16-Gao,Insulin prom inh,Insulin prom inh cell count,GALR2 ag,PKD1 kinase inh,HSV replic up,HSV replic up primary fold
O=C(NCc1ccccc1)C(c1ccccc1)N(C(=O)c1csnn1)C1CC1 (stereo unspecified),102.5,.,.,.,-2.2,i,0.87
COc1cc(C(=O)NCCc2cn3ccc(C)cc3n2)cc(OC)c1OC,105.1,.,.,-4.0,-12.4,i,0.8
O=C(c1ccccc1-c1ccccc1)N1CCN(c2ccccn2)CC1,97.7,-60.0,41.8,-2.6,-2.8,.,.
COc1cccc(CNc2ccc(F)c(Cl)c2)c1OC,43.6,-48.4,99.1,3.2,0.2,i,1.23
CC(C)(C)OC(=O)N/N=C\c1ccc(OC(=O)c2ccco2)cc1,102.9,-5.6,67.5,.,-2.0,i,0.95
CCn1c(Cc2ccccc2)nnc1SCC(=O)Nc1ccc(OC)cc1,99.2,-6.7,136.5,1.7,1.4,i,1.06
Cc1ccc(C(=O)OCC(=O)NCc2cccs2)cc1S(=O)(=O)N1CCOCC1,102.5,-45.5,76.1,.,-1.9,i,0.96
Cc1ccc(C(=O)NC(C)c2ccccc2)o1 (stereo unspecified),104.0,0.0,123.8,-1.3,0.6,i,0.99
CN(c1ccccc1)S(=O)(=O)c1cccc(NC(=O)c2cncc(Br)c2)c1,103.2,.,.,.,.,i,0.94
O=C(COc1cccc(NC(=O)c2cccc([N+](=O)[O-])c2)c1)c1ccc(Br)cc1,95.6,33.3,118.7,-3.9,-7.3,i,1.04
Cc1nnc(SCC(=O)NCc2ccccc2Cl)[nH]c1=O,92.2,.,.,.,7.2,i,0.95
O=C1c2ccccc2C(=O)N1CC#CCN1CCN(C2CCCCC2)CC1,100.0,.,.,-1.9,-14.8,i,0.92
CCCCn1nnnc1NCc1cccnc1,99.7,-405.6,29.3,-1.6,-3.9,i,1.04
COc1ccc(N2C=C3C(=O)C(C)(OC(=O)CCc4ccccc4)C(=O)C=C3C=C2c2ccc(C#N)cc2)cc1 (stereo unspecified),98.1,.,.,.,.,i,0.81
COc1cc(OC)cc(C(=O)N(Cc2nc(-c3cccc(C)c3)no2)C(C)C)c1,104.3,28.6,133.5,-2.1,-1.0,i,0.94
Cc1nc(C(=O)N2CCOCC2)sc1C1(C)CC(c2ccccc2)=NO1 (stereo unspecified),106.0,.,.,.,.,i,0.66
COc1ccccc1C(=O)N1CCCC(c2nc(-c3cc(OC)c(OC)c(OC)c3)no2)C1 (stereo unspecified),79.6,-12.9,77.4,-2.1,-13.2,i,0.99
Cc1ccccc1NC(=O)c1cccc(OCc2c(C)noc2C)c1,109.3,-8.1,128.4,-0.7,1.8,i,0.91
CCOc1c(Br)cc(CNc2ccc(N3CCN(C(C)=O)CC3)cc2)cc1OC,96.9,.,.,.,.,i,0.8
COc1ccc(C2C(C#N)=C(C)NC3=C2C(=O)CC(C)(C)C3)c(OC)c1 (stereo unspecified),104.5,-20.7,82.6,-2.7,-11.2,i,0.91
CCOC(=O)CCc1c(C)c2ccc(OCc3nn[nH]n3)c(C)c2oc1=O,104.9,.,.,-1.1,1.3,i,0.98
Cc1oc2c(CN3CCCC3)c(O)ccc2c(=O)c1-c1ccc(Cl)cc1,116.7,-15.4,125.3,-0.4,2.2,.,.
CCC(Oc1ccccc1)C(=O)N1CCN(c2ccccn2)CC1 (stereo unspecified),98.3,-146.2,110.7,-3.2,3.3,i,1.05
NC(=O)c1c(NC(=O)c2cc3ccccc3o2)sc2c1CCC2,86.3,.,.,-0.9,4.7,i,1.08
COc1cccc(C(=O)NCc2nnc(SCC(=O)Nc3nccs3)n2-c2ccccc2)c1,98.9,.,.,-1.9,-12.2,i,0.85
# (further entries)
SMILES,RGS16-Gao,Insulin prom inh,Insulin prom inh cell count,GALR2 ag,PKD1 kinase inh,HSV replic up,HSV replic up primary fold
C#CCN1CC(C)/C(=N/O)CC1C (stereo unspecified),107.7,.,.,0.2,7.6,i,0.99
COc1ccccc1/C=C(\C#N)C(=O)Nc1ccc(S(N)(=O)=O)cc1,101.6,-27.8,119.2,.,7.1,i,1.04
O=S(=O)(Cc1noc(-c2ccccc2Cl)n1)c1ccccn1,104.8,.,.,.,.,i,0.93
Cc1nn(CC(=O)c2ccc(Br)s2)c(C)c1[N+](=O)[O-],102.4,.,.,.,.,i,0.86
O=C(C1=NN(c2ccccc2)C2C(=O)N(c3ccccc3)C(=O)C12)c1ccccc1 (stereo unspecified),98.6,.,.,-1.8,-7.8,?,.
C=CCNCCCCOc1ccc(Br)cc1C,115.0,-26.3,116.4,-0.7,-4.5,i,0.96
O=C(O)/C=C/c1cnn(-c2ccccc2)c1,100.3,-31.6,143.7,.,-5.7,i,0.87
CCCOC(=O)CCCN1C(=O)/C(=C2\SC(=S)N(CCCC(=O)OCCC)C2=O)SC1=S,97.4,.,.,.,.,i,0.99
Cc1cc(N/N=C/c2ccccc2Cl)nc(NCc2ccccc2)n1,102.9,.,.,-0.2,-3.3,i,0.94
CCCOc1ccc(C(=O)CCC(=O)OCC(=O)Nc2cc(C)on2)cc1,101.8,20.0,112.0,-1.6,-9.4,i,0.95
COc1cc2c(cc1NC(=O)CSc1ccccn1)oc1ccccc12,108.0,-44.4,97.5,-1.8,0.4,.,.
Cc1ccc(S(=O)(=O)/N=C2/NC(=O)/C(=C/c3ccccn3)S2)cc1,106.7,-14.3,87.5,.,-2.2,i,0.95
COCc1cc(=O)[nH]c(Nc2nc(C)c3cc(OC)ccc3n2)n1,102.0,13.8,159.3,-1.3,-10.6,.,.
COC(=O)c1cc(=O)n(-c2c(Cl)cc(C(F)(F)F)cc2Cl)[nH]1,98.9,.,.,.,.,i,0.98
CN(C)S(=O)(=O)c1ccc(N2CCCC2)c(C(=O)Nc2nc3c(ccc4ccccc43)s2)c1,110.0,-14.3,83.5,0.1,-1.4,i,0.9
CCOc1cccc(CN2CCN(c3cccc(C(F)(F)F)c3)CC2)c1O,104.3,50.0,103.2,-1.4,-15.1,i,0.74
COc1ccc(CNc2oc(Cc3cccc4ccccc34)nc2C#N)cc1,101.4,.,.,-0.5,-2.7,i,0.89
COc1ccc(NC(=O)c2csc3c2CCCCC3)c(OC)c1,99.2,-11.1,98.3,.,-12.3,i,0.79
CCOc1cc(N2CCOCC2)c(OCC)cc1NC(=O)CN1CCCC(C)C1 (stereo unspecified),118.8,26.7,47.1,-1.3,-19.9,i,0.98
COc1ccc(CCNC(=O)CN2CCN(S(=O)(=O)c3ccc(Cl)cc3)CC2)cc1OC,104.9,-20.0,61.5,-0.3,-5.5,i,0.99
COC(=O)C1=C(C)N(C)C(=S)N(C)C1c1cccc(Br)c1 (stereo unspecified),103.8,5.9,85.6,.,-5.7,i,1.11
CC(=O)Nc1ccc(NS(=O)(=O)c2c(Cl)cccc2Cl)cc1,99.3,.,.,.,.,i,0.92
CN(C)CCCNc1c2c(nc3cc(-c4cccc(F)c4)nn13)CCC2,100.8,.,.,.,7.6,i,0.86
COc1cc(CNn2c(C)n[nH]c2=S)cc(Br)c1OCc1ccc(F)cc1,96.0,-66.7,90.1,-0.8,-2.2,i,0.83
CC[C@@H](C)[C@@H](C(=O)N1CCNCC1)n1cc(CCC(=O)O)nn1,100.9,.,.,.,8.3,i,0.97

# The closing 4 records of the part before come first, to join the parts:
SMILES,RGS16-Gao,Insulin prom inh,Insulin prom inh cell count,GALR2 ag,PKD1 kinase inh,HSV replic up,HSV replic up primary fold
CC(=O)Nc1ccc(NS(=O)(=O)c2c(Cl)cccc2Cl)cc1,99.3,.,.,.,.,i,0.92
CN(C)CCCNc1c2c(nc3cc(-c4cccc(F)c4)nn13)CCC2,100.8,.,.,.,7.6,i,0.86
COc1cc(CNn2c(C)n[nH]c2=S)cc(Br)c1OCc1ccc(F)cc1,96.0,-66.7,90.1,-0.8,-2.2,i,0.83
CC[C@@H](C)[C@@H](C(=O)N1CCNCC1)n1cc(CCC(=O)O)nn1,100.9,.,.,.,8.3,i,0.97
COc1ccc(OC)c(-c2oc3ccccc3c(=O)c2O)c1,98.4,-108.3,77.6,-1.4,-5.1,i,0.813
Cc1nc(C)c(C(=O)C2=C(O)C(=O)N(CCN3CCOCC3)C2c2cccnc2)s1 (stereo unspecified),168.3,-35.1,101.4,-1.1,-2.1,i,1.04
Cc1cc(C)n(-c2cc(=O)n(C)c(=O)n2C)n1,96.4,3.2,125.3,-2.0,3.7,i,0.94
Cc1cccc2cc(C3CC(c4ccco4)=NN3C(=O)CCC(=O)O)c(Cl)nc12 (stereo unspecified),101.5,15.4,133.9,-0.2,2.3,.,.
O=[N+]([O-])c1ccc(N2CCNCC2)c(S(=O)(=O)N2CCOCC2)c1,102.1,-25.0,108.6,-0.4,2.7,i,0.91
COc1cc(CN(C)CCc2ccccn2)cc(OC)c1OC,114.1,.,.,-0.8,-5.8,i,0.88
Brc1ccccc1-c1nnc(COc2cccc3cccnc23)o1,101.3,2.9,97.2,-3.8,-3.0,i,0.86
CCC(C)(C)n1nnnc1C(c1ccc2ncccc2c1)N1CCN2CCCC2C1 (stereo unspecified),103.9,5.7,87.6,-2.1,-0.2,i,0.86
O=C(NCc1ccccc1)C1=C[C@@H](c2ccc(C(F)(F)F)cc2)C[C@@H](OCc2ccc(CO)cc2)O1,105.2,.,.,.,0.9,.,.
O=C1/C(=C/c2ccc(N3CCCC3)cc2)NC(=S)N1C1CC1,103.5,-185.7,79.1,-1.0,-3.2,?,.
COc1ccccc1NC(=O)CSc1nnc(C2CCCCC2)n1-c1ccccc1,100.3,.,.,.,.,i,0.93
CC(C)C(C)NC(=O)COc1ccc([N+](=O)[O-])cc1Cl (stereo unspecified),111.3,14.3,49.5,-4.1,-5.5,i,0.96
S=C(NCCc1ccccn1)NC1CCCCC1,103.3,-26.5,35.3,-1.4,-3.7,i,0.98
O=C(N1CCCCC1)N1CCN(c2ccc(Cl)cc2)CC1,105.2,-17.9,112.4,0.8,-8.8,i,0.8
COc1ccc2c(c1)Cc1sc(NC(C)=O)nc1-2,98.7,43.8,129.9,-0.4,-1.8,i,1.03
COc1ccc(C(=O)NCC(=O)OCc2ccc(F)cc2Cl)cc1OC,111.0,-49.2,122.3,0.4,-1.6,i,0.92
O=C(Cc1cccs1)NNC(=O)C12CC3CC(CC(C3)C1)C2,100.7,-33.3,56.6,.,17.8,i,0.95
Cc1ccc(/C(COc2ccccc2O)=N\O)cc1,106.3,.,.,-3.9,-1.3,i,0.76
CC/C(=N\NC(=S)Nc1cc(C)ccc1C)c1ccc(OC(F)F)cc1,106.9,18.5,123.0,0.6,-8.4,i,0.91
CN(C(=S)NC1=CCS(=O)(=O)C1)C1CCCCC1,102.6,-53.1,146.7,-2.7,-1.3,i,0.95
CN1C(=O)N(C)C2(C)CC1(C)N(C)C(=O)N2C,105.6,.,.,.,.,i,1.1
Cc1ccccc1CNC(=O)Nc1cccs1,98.6,63.6,86.1,-0.9,-2.6,i,0.977
O=C(N/N=C/c1ccccc1)c1ccc(OCc2ccccc2)cc1,99.2,.,.,.,0.8,i,0.95
COc1ccc(N(C(=O)c2ccco2)S(=O)(=O)c2ccc(F)cc2)cc1,79.3,-456.2,45.8,-1.5,3.3,i,0.6
COC(=O)NNC(=O)C1CCC(C)CC1 (stereo unspecified),97.2,10.3,95.7,1.0,-3.5,i,0.93
# (further entries)
SMILES,RGS16-Gao,Insulin prom inh,Insulin prom inh cell count,GALR2 ag,PKD1 kinase inh,HSV replic up,HSV replic up primary fold
CCOC(=O)c1c(N)c2cc([N+](=O)[O-])cnc2n1C,100.8,.,.,.,.,i,1.16
COc1cc(OC)cc(C(=O)NNC(=S)Nc2ccccc2OC)c1,104.7,-25.0,94.9,-0.1,-13.8,.,.
COC(=O)C1=NN(c2ccc(OC)cc2)C2C(=O)N(c3ccccc3OC)C(=O)C12 (stereo unspecified),100.3,.,.,.,.,i,1
Cc1ccc(Cl)cc1-n1c(=O)cc(N2CC(C)OC(C)C2)[nH]c1=O (stereo unspecified),79.9,-118.2,81.0,0.9,3.2,i,1
O=C(/C=C/c1ccc(Br)cc1)c1ccc(NC2=NCCCS2)cc1,105.2,46.1,44.4,-2.0,-10.6,i,0.55
O=C(Cn1nc(C(=O)O)c2ccccc2c1=O)Nc1ccc2c(c1)OCO2,98.3,.,.,.,.,i,0.96

# Copied from the list:
# COc1cc(OC)cc(C(=O)NNC(=S)Nc2ccccc2OC)c1 – PKD1 kinase inh: -13.8
# Cc1ccc(Cl)cc1-n1c(=O)cc(N2CC(C)OC(C)C2)[nH]c1=O (stereo unspecified) – Insulin prom inh: -118.2
# COC(=O)C1=NN(c2ccc(OC)cc2)C2C(=O)N(c3ccccc3OC)C(=O)C12 (stereo unspecified) – HSV replic up primary fold: 1
# CCOC(=O)c1c(N)c2cc([N+](=O)[O-])cnc2n1C – RGS16-Gao: 100.8
# O=C(Cn1nc(C(=O)O)c2ccccc2c1=O)Nc1ccc2c(c1)OCO2 – RGS16-Gao: 98.3
# O=C(/C=C/c1ccc(Br)cc1)c1ccc(NC2=NCCCS2)cc1 – Insulin prom inh cell count: 44.4
